VDR inhibitor – Inhibitors of the vitamin D receptor (VDR): qHTS | Vitamin D3 receptor (Homo sapiens), P11473 | VDR-SRC2-3 peptide fluorescence polarization, 2 h | Potency, µM, without a hit: max response, negative = inhibition, hits mostly inhibitors | actives 0.93% (n = 400,000); active means well fitted inhibition curve with a large enough effect; inconclusive means small, poorly fitted or top-dose-only effect, or another doubt; inactive means no such curve, though single readings can be large or run the other way; further: series mostly up to about 120 µM
Target sequence (P11473 whole entry, looked up): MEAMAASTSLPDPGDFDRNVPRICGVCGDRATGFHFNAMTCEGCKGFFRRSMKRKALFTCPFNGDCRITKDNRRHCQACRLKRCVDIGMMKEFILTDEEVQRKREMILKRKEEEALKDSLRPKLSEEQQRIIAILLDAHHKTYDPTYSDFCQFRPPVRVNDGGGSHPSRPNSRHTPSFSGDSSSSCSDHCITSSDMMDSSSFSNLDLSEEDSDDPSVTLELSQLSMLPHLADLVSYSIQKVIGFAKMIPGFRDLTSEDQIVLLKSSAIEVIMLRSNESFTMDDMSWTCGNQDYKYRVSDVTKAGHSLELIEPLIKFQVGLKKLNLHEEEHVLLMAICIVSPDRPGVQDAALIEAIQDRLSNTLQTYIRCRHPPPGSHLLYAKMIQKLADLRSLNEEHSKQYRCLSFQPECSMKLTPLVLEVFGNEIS
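Two reagent solutions held at 4 deg C in the dark were dispensed, compounds pinned at 23 nl, and the mixture incubated 2 h at room temperature. Read-out: fluorescence polarization of VDR–SRC2-3 peptide binding.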
An asterisk follows results filed as active; u = inconclusive. On the % scale 0 is the no-effect control and ±100 the full control effect; potency means the concentration at half of the fitted maximal effect.

SMILES	VDR inhibitor
CCCOc1c(OC)cccc1C1CC(=O)Nc2cc3c(cc21)OCCO3 (stereo not drawn)	-1%
O=C(NCc1ccco1)C1CCN(S(=O)(=O)c2cccc([N+](=O)[O-])c2)CC1	1%
COc1ccc2cc(Br)ccc2c1CC(=O)NCC1CCCO1 (stereo not drawn)	4%
COc1ccc(/C=C/C(=O)N2CCN(S(=O)(=O)/C=C/c3ccccc3)CC2)cc1OC	-5%
O=C(OCC(=O)N1CCN(C(=O)c2ccco2)CC1)c1cccc(F)c1	-12%
CCCOc1ccc(OCCSc2ncccn2)cc1	-5%
COC(=O)c1ccc([C@H]2CC(=O)O2)cc1	-4%
CC(NC(=O)c1ccco1)C(c1cccs1)N1CCOCC1 (stereo not drawn)	-6%
Cc1nc2ccc([N+](=O)[O-])cc2c(=O)n1Cc1ccc(F)cc1	-12%
CCN1C(=O)[C@H]2[C@@H](c3ccc(C)cc3)N3C(=O)N(c4cccc(Cl)c4)C(=O)[C@@]3(Cc3ccccc3)[C@H]2C1=O	-19%
COc1cccc(Cn2c(=O)c3ccccc3n3nc(C)cc23)c1	-1%
O=C(CCc1nc(-c2ccccc2Cl)no1)NC1CCCCC1	-4%
O=C(COc1ccc(CO)cc1)Nc1ccc(F)cc1	-11%
CC1CC(C)CN(c2ccc(C(=O)OCC(=O)NC3CCCc4ccccc43)cc2[N+](=O)[O-])C1 (stereo not drawn)	-13%
CCCOc1ccc(C(=O)Nc2ccc3oc(-c4ccc5ccccc5c4)nc3c2)cc1	-8%
O=c1cc(-c2ccccc2)nc2cc(-c3ccc(Br)cc3)[nH]n12	-6%
Cc1cc(C(=O)CSc2nnnn2C)c(C)n1-c1cccc(F)c1	10%
CCc1cccc(NC(=O)C2CCN(S(=O)(=O)c3ccc4c(c3)NC(=O)CO4)CC2)c1	-4%
CCn1c(=O)c2cc(C(=O)NCCc3ccc(OC)c(OC)c3)sc2c2ccccc21	-10%
COc1ccc(C2C(=O)N(CCc3ccccc3)CC(=O)N2C2CCCCC2)cc1 (stereo not drawn)	-1%
COc1ccc(CNC(=O)c2sccc2-c2ccccc2)cc1OC	0%
CN(C)S(=O)(=O)c1cccc(NC(=O)COC(=O)CCc2nc3ccccc3s2)c1	13%
CCOC(=O)c1ccc(N2C(=O)C(CC(N)=O)N(CCc3ccc(OC)c(OC)c3)C2=S)cc1 (stereo not drawn)	4%
CC1=CC(C)(C)n2c(O)c(N=N)c3cc(C)cc1c32	1%
Cc1ccc(C2N=C(Nc3nc4ccccc4o3)NC3=C2C(=O)CC(C)(C)C3)cc1 (stereo not drawn)	-15%
Cc1occc1C(=O)Nc1nnc(C2CCCCC2)s1	-20%
O=C(CNC(=O)c1cccs1)NCC(=O)OCc1cccc(Cl)c1	3%
NC(=O)c1nsc(C(=O)N(c2ccc3c(c2)OCCO3)C(C(=O)NCC2CCCO2)c2ccc(F)cc2)c1N (stereo not drawn)	-16%
CC(=O)NS(=O)(=O)c1ccc(NC(=O)/C=C/c2ccc(C)o2)cc1	-17%
Cc1c(C(=O)N(C)C)sc2nc(-c3ccccn3)[nH]c(=O)c12	-11%
CC(=O)N1CCC(C(=O)N2CCN(S(=O)(=O)c3ccc(Cl)s3)CC2)CC1	-10%
O=C(CN1C(=O)NC2(CCCCC2)C1=O)Nc1cccc(S(=O)(=O)N2CCCC2)c1	6%
CC(C)CNS(=O)(=O)c1ccc(OCC(=O)Nc2ccc3c(c2)OCCO3)cc1	-7%
O=C(CSc1ncn[nH]1)NC12CC3CC(CC(C3)C1)C2	-9%
C=CCn1c(SCc2cccc(C#N)c2)nnc1-c1ccccc1O	-26%
O=C(CNC(=O)c1ccccc1F)N/N=C\C=C\c1ccccc1	-10%
CCC(=O)Nc1cccc(C(=O)/C=C/c2cc(Br)ccc2OC)c1	u
COc1cc(/C=N/n2c(C3CCCCC3)n[nH]c2=S)cc(OC)c1O	-12%
O=C(CNC(=O)c1ccccc1F)c1ccccc1	-17%
O=C(NCc1cccc(Cl)c1)c1cccc(C(F)(F)F)c1	12%
COc1ccc(NC(=O)Cn2c(=O)oc3cc(S(=O)(=O)N4CCCCC4C)ccc32)cc1 (stereo not drawn)	3%
CN1C2CCC1CC(NS(=O)(=O)c1cc(Cl)c(Cl)cc1Cl)C2 (stereo not drawn)	-7%
CCn1c(N2CCN(C(=O)Nc3ccc(F)cc3)CC2)nc2ccccc21	-12%
O=[N+]([O-])c1ncccc1OCc1ccc(Br)cc1F	-8%
O=C(O)CCCCCN1C(=O)c2ccc(C(=O)O)cc2C1=O	-5%
Cc1ccccc1C(=O)NNc1ccc(-c2csnn2)cc1	9%
O=C1c2ccc(Br)cc2C(=O)N1c1ccc(Cl)cn1	6%
CC1(c2ccc(Cl)cc2)NC(=O)N(CN2CCOCC2)C1=O (stereo not drawn)	-2%
Cc1ccc(-n2nnc3c(=O)n(Cc4cc(C)ccc4C)cnc32)cc1	-1%
CCCCC(=O)N1C/C=C\[C@H](c2ccc(OC)cc2)N(Cc2ccc(F)cc2)C(=O)[C@@H]1C	-4%
CC(C)(C)C(=O)Nc1c2c(nn1-c1ccccc1)CSC2	-20%
Cc1ccccc1NC(=O)NCC1CCN(C(=O)OC(C)(C)C)CC1	-7%
Cc1ccc(-c2cc(C(=O)NCCCN3CCOCC3)no2)cc1	-6%
O=C(c1cn(-c2ccccc2)nc1-c1cccs1)N1CCOCC1	-1%
COc1cccc(CN2CC(C(=O)NCc3ccc(Cl)s3)CCC2=O)c1 (stereo not drawn)	18%
CCN(c1ccccc1)S(=O)(=O)c1ccc(C(=O)Nc2nccs2)cc1	-6%
Cc1cc(C)c(OCCCCN2CCNCC2)c(C)c1	-10%
O=C(NCCCN1CCCC1=O)c1ccc(NS(=O)(=O)c2ccccc2)cc1	25%
Cc1cccc(N2CCN(C(=O)CN3CCOc4ccccc43)CC2C)c1 (stereo not drawn)	-26%
Cc1cc(NC(=O)c2ccc(C)s2)n(-c2ccccc2)n1	22%
(more compounds)
SMILES	VDR inhibitor
CSc1ccccc1OCc1cc(C(=O)N2CCN(C)C(c3ccccc3)C2)no1 (stereo not drawn)	11%
CCC(C)N(C(=O)CSc1nc(-c2ccccc2)cs1)C1CCS(=O)(=O)C1 (stereo not drawn)	-3%
CCCn1nnc(NC(=O)c2ccc3c(c2)OCO3)n1	-12%
O=C(Nc1ccncc1)C1CCN(S(=O)(=O)c2cccs2)CC1	6%
CCc1ccc(-n2c(=O)c3sc4ccccc4c3n(CC(=O)N(CC)Cc3ccccc3)c2=O)cc1	1%
O=C(CCc1nnc(-c2ccsc2)o1)N1CCCCC1CCn1ccnc1 (stereo not drawn)	-12%
Cc1cccc(C)c1N1C(=O)C(Cl)=C(N2CCCC2)C1=O	-21%
O=C(NC1CCCCC1)c1ccc([N+](=O)[O-])cc1	-3%
O=C(O)CC1Sc2nc3ccccc3n2C1=O (stereo not drawn)	-8%
CCOc1ccccc1CNC(=O)C1CCN(Cc2cc3ccccc3n2Cc2ccccc2)CC1	0%
CSc1nccc(Oc2cccc(C#N)c2)n1	19%
Cc1ccc2nc(SCC(=O)c3ccc4c(c3)OCO4)[nH]c2c1	4%
COc1ccc(CCCC(=O)N/N=C/c2ccc(C)cc2)cc1	-8%
O=C(CN1CCOc2ccccc21)N1CCC(Cc2ccccc2)CC1	-11%
O=C1C2C3C=CC(C3)C2C(=O)N1CCN1CCN(S(=O)(=O)/C=C/c2ccccc2)CC1 (stereo not drawn)	9%
CCCCCc1c(C)nc(Nc2ccccc2)[nH]c1=O	9%
COc1ccc(C)cc1S(=O)(=O)N1CCN(C(=O)c2ncoc2-c2ccc(C)cc2)CC1	-4%
O=C(Nc1ccccc1-c1nc2ccccc2s1)c1cccnc1	-2%
CCC(=O)Nc1nc2ccccc2n1Cc1ccc(Cl)cc1	-20%
O=C(COC(=O)Cn1cc(C(F)(F)F)ccc1=O)NCc1ccccc1	9%

21 compounds already listed, sorted by formula weight, low to high.
SMILES	VDR inhibitor
CSc1nccc(Oc2cccc(C#N)c2)n1	19%
O=C(O)CC1Sc2nc3ccccc3n2C1=O (stereo not drawn)	-8%
CCCCCc1c(C)nc(Nc2ccccc2)[nH]c1=O	9%
CCCn1nnc(NC(=O)c2ccc3c(c2)OCO3)n1	-12%
Cc1cc(C)c(OCCCCN2CCNCC2)c(C)c1	-10%
Cc1cc(NC(=O)c2ccc(C)s2)n(-c2ccccc2)n1	22%
Cc1cccc(C)c1N1C(=O)C(Cl)=C(N2CCCC2)C1=O	-21%
COc1ccc(CCCC(=O)N/N=C/c2ccc(C)cc2)cc1	-8%
CCC(=O)Nc1nc2ccccc2n1Cc1ccc(Cl)cc1	-20%
Cc1ccc2nc(SCC(=O)c3ccc4c(c3)OCO4)[nH]c2c1	4%
O=C(Nc1ccccc1-c1nc2ccccc2s1)c1cccnc1	-2%
O=C(CN1CCOc2ccccc21)N1CCC(Cc2ccccc2)CC1	-11%
O=C(Nc1ccncc1)C1CCN(S(=O)(=O)c2cccs2)CC1	6%
Cc1cccc(N2CCN(C(=O)CN3CCOc4ccccc43)CC2C)c1 (stereo not drawn)	-26%
O=C(COC(=O)Cn1cc(C(F)(F)F)ccc1=O)NCc1ccccc1	9%
O=C(CCc1nnc(-c2ccsc2)o1)N1CCCCC1CCn1ccnc1 (stereo not drawn)	-12%
O=C(NCCCN1CCCC1=O)c1ccc(NS(=O)(=O)c2ccccc2)cc1	25%
CSc1ccccc1OCc1cc(C(=O)N2CCN(C)C(c3ccccc3)C2)no1 (stereo not drawn)	11%
CCC(C)N(C(=O)CSc1nc(-c2ccccc2)cs1)C1CCS(=O)(=O)C1 (stereo not drawn)	-3%
CCOc1ccccc1CNC(=O)C1CCN(Cc2cc3ccccc3n2Cc2ccccc2)CC1	0%
CCc1ccc(-n2c(=O)c3sc4ccccc4c3n(CC(=O)N(CC)Cc3ccccc3)c2=O)cc1	1%

Next section
SMILES	VDR inhibitor
CNS(=O)(=O)c1ccc2ccccc2c1	-14%
CCOc1ccccc1N1CCN(C(=S)NCc2ccccc2)CC1	1%
COc1cccc(C2CC(=O)N3CN(C4CCCCC4)CSC3=C2C#N)c1 (stereo not drawn)	u
O=C/C(=C\Nc1ccccn1)c1nc2cc(Cl)ccc2o1	7%
Cc1cc(C)n(-c2ccc(C(=O)OC(C)C)cc2)n1	-17%
CCOc1ccc(S(=O)(=O)Nc2ccc(C(=O)N/N=C(\C)c3ccc(-n4ccnc4)cc3)cc2)cc1	-8%
Cc1ccc(N(C(=O)c2ccncc2)C2C=CS(=O)(=O)C2)cc1 (stereo not drawn)	-22%
CN(Cc1ccccc1)C(=O)COC(=O)/C=C/c1ccc2c(c1)OCO2	-1%
Cc1ccc2oc(C(=O)N(Cc3cccc(F)c3)C3CCS(=O)(=O)C3)c(C)c2c1 (stereo not drawn)	9%
Cc1ccccc1OCC(=O)NNC(=O)Cn1[nH]c(=O)c2ccccc2c1=O	3%
Cc1nc(-c2ccccc2)sc1CCNC(=O)c1ccco1	6%
COc1ccc(CCNC(=O)C2CCC(CNS(=O)(=O)c3ccc(F)cc3)CC2)cc1OC (stereo not drawn)	-6%
O=c1c2ccccc2nc(SCc2cc([N+](=O)[O-])cc3c2OCOC3)n1-c1ccccc1	-17%
CCOC(=O)c1cnc2c(cnn2C)c1NCc1ccc(OC)cc1	-3%
Cc1cccc2sc(NC(=O)CN3C(=O)c4ccccc4C3=O)nc12	-33%
Cc1ccc(CNC(=O)C(=O)NCC(c2ccco2)S(=O)(=O)c2ccccc2)cc1 (stereo not drawn)	-8%
COc1ccc(N(CC(=O)NCCSCc2ccco2)S(=O)(=O)c2ccccc2)cc1OC	-16%
Cc1cc(C(F)(F)F)n(-c2nc(C(=O)O)cs2)n1	-5%
Cc1nnc(NC(=O)CSc2nccn2-c2cccc(C)c2C)s1	-12%
Cc1c(NC(=O)CSc2ccccn2)c(=O)n(-c2ccccc2)n1C	-2%

Continued (2 carried over from the part before).
SMILES	VDR inhibitor
Cc1nnc(NC(=O)CSc2nccn2-c2cccc(C)c2C)s1	-12%
Cc1c(NC(=O)CSc2ccccn2)c(=O)n(-c2ccccc2)n1C	-2%
Cc1ccc(CCNc2nc3c(S(=O)(=O)c4ccc(C)cc4)nnn3c3ccsc23)cc1	-1%
COc1ccc(NC2=C(Cl)C(=O)N(CCc3ccccc3)C2=O)c(OC)c1	-11%
Nc1nc2n(n1)C(=O)CC(c1ccc(Cl)cc1)N2 (stereo not drawn)	-11%
O=C1NC(=S)NC(=O)C1Nc1ccc(Cl)cc1	u
COc1cccc(CN(C(=O)COc2ccc(Cl)c(C)c2)C2CCS(=O)(=O)C2)c1 (stereo not drawn)	8%
CCOc1ccc(NC(=O)[C@@H](NC(=O)c2ccccc2)[C@@H](C)CC)cc1	5%
Cc1ccc(NC(=O)C2CC(=O)NC(N3CCc4ccccc43)=N2)cc1 (stereo not drawn)	-3%
CCCCOc1ccccc1NC(=O)Cn1c(-c2nonc2N)nc2ccccc21	6%
CCn1nccc1C(=O)Nc1ccc(C(=O)OC(C)C)cc1	-8%
COCCNC(=O)[C@H](C)[C@H]1C[C@]1(C)[C@H](NC(=O)OCc1ccccc1)c1ccccc1	8%
Cc1ccccc1NC(=O)c1ccc(Cn2cc([N+](=O)[O-])cn2)o1	-4%
CC(C)(C)c1cc(NCCCn2ccnc2)n2ncc(-c3ccccc3)c2n1	-1%
O=C1N/C(=C/c2cccs2)C(=O)N1Cc1ccc(F)cc1	-13%
CC(c1nccs1)N(C)C(=O)c1ccc(OC2CCN(CCc3ccccc3)CC2)cc1 (stereo not drawn)	9%
O=C(CCl)NCCN1C(=O)S/C(=C\c2cccnc2)C1=O	7%
COc1ccc([C@@H]2CC(=O)c3c(O)cc(O[C@@H]4O[C@H](CO[C@@H]5O[C@@H](C)[C@H](O)[C@@H](O)[C@H]5O)[C@@H](O)[C@H](O)[C@H]4O)cc3O2)cc1O	-8%
CC(C)C(=O)NCCc1nc(-c2ccc(Cl)cc2)no1	-28%
CCCCn1c(-c2csc3ccccc23)n[nH]c1=S	-1%
Cc1sc2ncnc(N3CCC(C(=O)Nc4nnc(CC(C)C)s4)CC3)c2c1C	-5%

Bioassay records as filed in PubChem.

Not all compounds are listed; count on the stated rates, not on these rows.
